Assay outcomes from PubChem BioAssay.
Rango release inh: qHTS Assay for Inhibitors of RanGTP induced Rango (Ran-regulated importin-beta cargo) - Importin beta complex dissociation; 340,000 compounds, 0.071% hits; Biochemical FRET Rango-importin beta, RanGTP-induced dissociation; AID 540253, 2011; Potency, µM (doses to about 46.1 µM), for the others: top-dose activity change, negative = inhibition; Snurportin-1 (Homo sapiens) + GTP-binding nuclear protein Ran (Homo sapiens) + Importin …; active means falling FRET ratio curve, often poorly fitted, with flat reads before Ran was added; inconclusive means other falling curves, or compound fluorescence or quenching; inactive means flat or rising ratio curve;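 note: potency is the fitted concentration of half-maximal effect; % of control where 0% means no effect; nearly all actives have a fitted effect of over 45% in size; -100% = wells without RanGTP and RCC1; the record marks most hits as doubtful in a second field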
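Rango/importin beta premix (0.1/0.25 uM final), PBS + 1 mM DTT + 0.02% Tween-20 + 0.1% BSA; cpd 5 min RT; FRET pre-read; + RanGTP-RCC1 (0.6 uM Ran, 2 mM GTP, 0.2 uM RCC1); 45 min RT; FRET post-read, ex 430, em 486/530 nm.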
GLA inh pH 4.5: qHTS Assay for Inhibitors of Human alpha-Galactosidase at pH 4.5; Alpha-galactosidase A (Homo sapiens), P06280; purified enzyme, 4-MU-alpha-Gal fluorescence, pH 4.5; activity change, negative = inhibition, % at 105 µM; 230,000 tested, under 10 active; inconclusive = small, poorly fitted or top-dose-only inhibition, or a rising curve; inactive = flat fitted curve, though single readings scatter; no compound was filed as active;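 note: 0% = full activity with enzyme and -100% = basal without enzyme; dose as in the result columns while the protocol names 77 µM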
Target sequence (P06280 whole entry, looked up): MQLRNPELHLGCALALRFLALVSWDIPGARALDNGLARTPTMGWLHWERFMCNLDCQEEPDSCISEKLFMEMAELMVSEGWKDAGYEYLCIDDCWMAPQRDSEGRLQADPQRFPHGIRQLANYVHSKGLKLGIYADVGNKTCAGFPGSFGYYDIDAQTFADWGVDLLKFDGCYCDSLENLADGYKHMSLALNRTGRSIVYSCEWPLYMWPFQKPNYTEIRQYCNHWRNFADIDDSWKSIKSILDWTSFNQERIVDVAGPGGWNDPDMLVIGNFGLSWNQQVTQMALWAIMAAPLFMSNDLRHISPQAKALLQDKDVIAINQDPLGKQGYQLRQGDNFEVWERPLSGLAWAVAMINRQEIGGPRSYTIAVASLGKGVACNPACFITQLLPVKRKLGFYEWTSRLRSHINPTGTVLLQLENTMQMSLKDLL
miR-21 FLuc: qHTS Assay for Modulators of miRNAs and/orActivators of miR-21; HeLa miR-21 FLuc reporter, luciferase, 48 h; Potency, µM (highest dose often 38.3 µM), for inactives: top-dose reporter change, positive = more light; 340,000 tested, under 10 active; AID 2288, 2010; active = well fitted rising curve with a large enough effect; inconclusive = small, poorly fitted or top-dose-only effect; inactive = no such curve, though single readings can be large or run the other way;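 note: % of control where 0% means no effect; miR-21 action dims this reporter so a rising signal means less miR-21 action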
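HeLa cells endogenously expressing miR-21, stably carrying CMV-driven firefly luciferase with a downstream miR-21 binding site, 2000 cells/well. Titrations up to approximately 40 uM, 48 hours; luciferase luminescence read.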
Rango complex inh: qHTS Assay for Inhibitors of Rango (Ran-regulated importin-beta cargo) - Importin beta complex formation. Rango CFP/YFP FRET sensor + importin beta, 45 min. 340,000 compounds, 0.031% hits. Importin subunit beta-1 (Homo sapiens), Q14974. Potency, µM (doses to about 92.2 µM), inactives show at the highest dose inhibition of complex formation. AID 540263, 2011; active = rising FRET ratio curve, often small or poorly fitted; inconclusive = mostly compound fluorescence or quenching in the first reads; inactive = flat curves in all reads;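 note: potency is the fitted concentration of half-maximal effect; 0% = DMSO wells and 100% = buffer wells lacking importin beta; nearly all actives have a fitted effect of over 15% in size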
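FRET biosensor (snurportin 1 IBB flanked by EYFP and cerulean), 50 nM, with compound 5 min, then 0.125 microM importin beta in PBS, 1 mM DTT, 0.02% Tween-20, 0.1% BSA. CFP/YFP ratio read after 45 min at room temperature; pre-read flags interference.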
* marks the source's active call; other numbers are inactive results; ? = inconclusive; · = not tested or not shown; [ ] = dose if it differs, or a comment. The list is partial, so the mix of outcomes need not match the whole.

SMILES	Rango release inh	GLA inh pH 4.5	miR-21 FLuc	Rango complex inh
Cn1nccc1NC(=O)Nc1cccc(Br)c1	1.3%	·	-5.8%	0.6%
O=C(O)CCN1C(=O)C(=C2CCCCCC2)SC1=S	12.7%	7.0	-8.1%	3.5%
Cc1cc(C)c2ccc(Cl)cc2n1	-6.0%	0.4	-10.7%	0.0%
COc1cc(NC(=O)c2ccco2)c(OC)cc1NC(=O)CCC(=O)Nc1cc(C)ccc1C	6.9%	-7.0	-5.8%	1.6%
Cc1ccc(-c2nnc(N3CCOCC3)c3ccccc23)cc1S(=O)(=O)NCC1CCCO1 (stereo not given)	0.0%	1.3	6.0%	-0.1%
COc1ccc(-c2nc3ccccc3c(=O)n2CCCN2CCOCC2)cc1	26.5%	-1.2	-9.2%	0.0%
O=C(O)C1C2C=CC(C2)C1C(=O)NCCc1ccncc1 (stereo not given)	-2.3%	5.7	0.4%	-3.5%
O=C(CN1C(=O)C2C3C=CC(C3)C2C1=O)N1CC(=O)N(CCc2ccccc2)C(=O)C1 (stereo not given)	9.3%	-16.4	-8.8%	4.0%
CCCCC(Sc1nc(N)c(NC(=O)c2ccc(OCC)cc2)c(=O)[nH]1)C(=O)O (stereo not given)	0.8%	3.5	-1.3%	-3.4%
COc1cc2nc(NC(=O)c3ccccc3)sc(=O)c2cc1OC	-0.5%	·	-1.4%	-4.5%
CC(=O)c1cccc(NC(=O)CCc2nnc3ccc(NCc4ccco4)nn23)c1	1.3%	·	1.4%	0.0%
COc1ccc(-n2c(SCC(=O)Nc3ccc4c(c3)OCO4)nc3ccccc3c2=O)cc1	6.8%	-1.6	-6.1%	-2.1%
FC(F)(F)c1ccc(-c2nnc(-c3cccnc3)o2)cc1	2.6%	·	-13.5%	1.3%
O=C(NCc1cccnc1)c1cccn1-c1ncc(C(F)(F)F)cc1Cl	0.8%	3.4	1.4%	2.4%
CCc1nnc(NC(=O)CSc2nnc(Cc3ccccc3)n2Cc2ccccc2)s1	?	-0.7	0.7%	?
CN1CCN(S(=O)(=O)c2ccc(NC(=O)c3ccc(F)cc3Cl)cc2)CC1	-9.4%	·	-4.9%	0.3%
COc1cc(Cl)nn(-c2ccccc2)c1=O	-7.1%	12.6	-0.3%	?
Cc1ccc(OCCCCNC(C)(C)C)c([N+](=O)[O-])c1	-1.1%	-1.1	0.4%	1.2%
CC(=O)N1CCc2cc(S(=O)(=O)NCCCN3CCCCC3)ccc21	9.9%	·	0.6%	-1.5%
CC(C)(C)Nc1nc(Oc2ccc(=O)[nH]n2)nc(N2CCOCC2)n1	17.2%	-1.4	1.6%	-1.1%
CC(O)c1cccc(NC2=CC(=O)CC(C)(C)C2)c1 (stereo not given)	-7.3%	5.8	-5.6%	-3.3%
CN1C(=O)C(CC(=O)Nc2ccc(F)cc2)N(Cc2cccs2)C1=S (stereo not given)	-9.1%	-9.0	8.9%	-1.1%
CCSc1nnc(NC(=O)COc2ccccc2[N+](=O)[O-])s1	-8.2%	4.3[21.1 µM]	-63.1%	7.6%
Cc1cc(Cl)ccc1OCc1nnc(-c2ccccc2C)o1	9.4%	·	·	-3.7%
CCCNC(=O)Cn1c(=O)/c(=C\c2ccc(-c3ccc([N+](=O)[O-])cc3)o2)s/c1=C\C(=O)C(C)(C)C	?	-5.3	-10.0%	?
CCCn1nc(NC(=O)COC)c2cc3cccc(C)c3nc21	?	·	-4.0%	?
N#Cc1ccccc1Sc1ccccc1C(=O)Nc1ccc2ccccc2c1	12.2%	2.4	0.7%	-0.2%
O=C(CSc1ncn[nH]1)c1ccc2c(c1)OCCO2	-1.4%	-2.3	-34.9%	3.2%
COCc1nnc(NC(=O)C23CC4CC(CC(C4)C2)C3)s1	10.4%	·	·	?
COc1cc2nc(COc3ccccc3[N+](=O)[O-])oc(=O)c2cc1OC	4.7%	-20.4	-1.0%	-6.1%
Cc1ccc(OCC(=O)n2cnnc2N)c(C)c1	·	-5.7	-12.7%	·
COC(=O)CCC(=O)c1ccn(S(=O)(=O)c2ccccc2)c1	1.5%	·	-6.8%	0.1%
CSc1ccccc1NC(=O)c1cc2c(=O)n3ccccc3nc2s1	?	·	-9.1%	?
Cc1ccc(NC(=O)C(C)OC(=O)C2CC3CCCC(C2)C3=O)cc1S(=O)(=O)N1CCOCC1 (stereo not given)	-5.3%	·	·	-0.4%
CC1(C)CC(NC(=O)COc2ccc3ccccc3c2)CC(C)(C)N1	-13.4%	0.0	-10.9%	0.0%
COc1ccc(CNc2cccc3[nH]c(C(F)(F)F)nc23)cc1	0.3%	·	8.8%	-0.8%
O=C(COc1ccc(F)cc1)N1CCC(c2ccccc2)C1 (stereo not given)	-15.8%	-6.2	-62.8%	0.7%
C=Cn1nc(C)c2ccccc2c1=O	0.2%	6.6	-8.3%	2.4%
CC(C)Nc1nc(-c2cccnc2)nc(-c2ccc(Cl)cc2)c1C#N	26.0%	·	-6.8%	1.7%
COCCCNC(=S)N/N=C/c1ccc(O)cc1O	-6.6%	0.5	-22.4%	3.3%
CCCC(C)C(=O)Nc1ccc(Cl)cn1 (stereo not given)	0.4%	4.5	1.9%	-0.2%
CC1Sc2ccc(C(=O)NCc3ccccn3)cc2NC1=O (stereo not given)	-0.5%	·	·	1.6%
Cc1cc(C)nc(-n2nc(C)cc2NC(=O)c2ccc3c(c2)OCO3)n1	·	-2.8	-2.5%	·
C=CCn1c(SCC(=O)c2c(N)n(C3CC3)c(=O)[nH]c2=O)nnc1-c1ccoc1C	12.1%	·	·	5.2%
COc1ccccc1C(c1nnnn1Cc1ccccc1)N1CCN(c2nc3ccccc3s2)CC1 (stereo not given)	-15.3%	-9.2	16.2%	-2.9%
CN(c1ccccc1)S(=O)(=O)c1cccc(NC(=O)C2=NN(c3ccccc3)C(=O)CC2)c1	-3.1%	·	·	4.7%
O=C(O)C(Cc1ccccc1)n1cnnn1 (stereo not given)	-8.3%	-3.0	-4.1%	5.1%
CCNC(=O)NC(=O)CSc1ccc(S(=O)(=O)N2CCOCC2)cn1	-1.5%	·	·	-5.8%
Nc1nonc1-n1nnc(C(=O)N/N=C/c2ccccc2Br)c1CN1CCCC1	0.4%	·	-7.2%	2.7%
CCCc1nc2ccccc2c(C(=O)OCc2nnc(-c3cc(OC)c(OC)c(OC)c3)o2)c1CC	-6.7%	-12.2	10.1%	2.5%
Cc1nc(NC2CCCCC2)c2nnn(Cc3ccccc3Cl)c2n1	-4.9%	·	-3.0%	-2.5%
COc1ccccc1C(=O)Nc1ccncc1	?	·	-3.9%	-4.6%
O=[N+]([O-])c1ccc2[nH]nc(-c3ccccc3)c2c1	-0.4%	-3.2	-2.3%	-2.9%
CC(O)c1nc2ccc(C(=O)O)cc2[nH]1 (stereo not given)	13.4%	5.3	1.8%	-0.1%
O=C(O)CC/C(=C/c1cccc(NC(=O)c2ccccc2Cl)c1)c1nc2ccccc2s1	22.6%	·	·	-3.0%
NCCCC[C@@H]1NC(=O)c2cc([N+](=O)[O-])cc(F)c2NCCCC[C@@H](C(N)=O)NC(=O)CNC1=O	-7.5%	-0.8	-1.5%	-1.9%
O=C(CCS(=O)(=O)c1ccccc1)Nc1nccs1	-4.6%	-5.4	12.4%	0.0%
CSc1ccccc1OCc1cc(C(=O)NCCn2nc(C)cc2C)no1	9.3%	·	-3.0%	-0.3%
CCOc1ccc(OCC)c(NC(=O)Cn2c(C)nc3ccccc3c2=O)c1	17.1%	1.1	-1.3%	-0.5%
Cc1ccc(S(=O)(=O)Nc2ccc(NC(=O)Nc3cccc(C(F)(F)F)c3)cc2)cc1	7.9%	1.5	?	-0.8%

Shown in CSV form: part of the list above
mol,Rango release inh,GLA inh pH 4.5,miR-21 FLuc,Rango complex inh
Cc1ccc(OCCCCNC(C)(C)C)c([N+](=O)[O-])c1,-1.1%,-1.1,0.4%,1.2%
CC(=O)N1CCc2cc(S(=O)(=O)NCCCN3CCCCC3)ccc21,9.9%,·,0.6%,-1.5%
CC(C)(C)Nc1nc(Oc2ccc(=O)[nH]n2)nc(N2CCOCC2)n1,17.2%,-1.4,1.6%,-1.1%
CC(O)c1cccc(NC2=CC(=O)CC(C)(C)C2)c1 (stereo not given),-7.3%,5.8,-5.6%,-3.3%
CN1C(=O)C(CC(=O)Nc2ccc(F)cc2)N(Cc2cccs2)C1=S (stereo not given),-9.1%,-9.0,8.9%,-1.1%

(further entries)
SMILES	Rango release inh	GLA inh pH 4.5	miR-21 FLuc	Rango complex inh
CC(=O)Nc1ccc(NC(=O)CN2CCCC(C)C2)c(Cl)c1 (stereo not given)	1.9%	12.7	-59.4%	-3.2%
COc1ccc(CN2C(=O)c3cccnc3C2=O)cc1S(=O)(=O)NC(C)C	4.8%	·	0.7%	2.4%
CC1=CC2=NC(=O)/C(=C/c3coc4ccc(Cl)cc4c3=O)C(=N)N2O1	?	6.0	12.7%	?
O=C(O)CSc1nc2c(cnn2-c2ccccc2)c(=O)n1-c1ccc(Br)cc1	4.9%	1.7	-9.5%	-4.4%
CCn1c(=O)c(CCC(=O)N2CCN(c3ccccn3)CC2)c(C)c2c(C)nn(-c3ccccc3)c21	4.7%	·	-1.1%	4.0%
Cc1ccc(C23CC4CC(CC(C(=O)NC(C(=O)O)C(C)C)(C4)C2)C3)cc1 (stereo not given)	-4.2%	·	0.5%	2.8%
COc1cc(F)cc(C2=CC(=O)C[C@H](c3ccc(F)cc3)C2)c1	29.4%	·	·	-1.8%
C[C@@]12C(=O)N(c3cccc(F)c3)C(=O)N1[C@@H]1c3ccccc3OC[C@@H]1[C@H]2c1ccccc1	-10.6%	·	·	3.9%
O=C(O)c1nn(CC(=O)N2CCC(Cc3ccccc3)CC2)c(=O)c2ccccc12	0.0%	·	0.1%	-2.3%
COc1ccc(NC(=O)c2nc3nccc(C)n3n2)cc1S(=O)(=O)N1CCOCC1	7.9%	·	·	?
C#CCn1c(=O)cc(C)c2ccccc21	-9.0%	4.5	-3.6%	3.1%
CCS(=O)(=O)N1CCN(S(=O)(=O)c2ccc(F)cc2)CC1	11.2%	7.9	1.1%	-5.7%
Cc1ccc(NC(=O)N2CCCC2)cc1Cl	3.2%	0.4	-29.8%	?
CC1(C)Cn2c(nnc2-c2cccc(O)c2)S1	4.4%	4.3	-12.2%	-2.4%
COc1ccc(CCNC(=O)CCc2ccc(S(=O)(=O)NC(C)C)cc2)cc1OC	14.4%	-5.1	-1.9%	0.2%
c1cncc(CSc2nnc3ccc(-c4ccncc4)nn23)c1	?	7.5	-2.1%	-3.1%
CC1CC(C)CN(S(=O)(=O)c2ccc(C(=O)NN3CCOCC3)cc2)C1 (stereo not given)	-18.3%	3.8	-3.0%	0.6%
CCOC(=O)N1CCN(C(=O)c2cccc(NS(=O)(=O)c3ccc(F)c(F)c3)c2)CC1	-0.2%	-5.2	-0.5%	-2.5%
O=C1Nc2ccccc2SC(c2ccccc2)C1O (stereo not given)	-12.9%	-5.4	-10.5%	-2.4%
Fc1ccccc1NC(=S)N(CCN1CCCCCC1)Cc1cccs1	-9.8%	-7.0	15.9%	-1.3%
COCCCNC(=O)Cn1nnc(-c2ccc(NC(=O)c3ccccc3OC)cc2)n1	-0.4%	0.7	-16.9%	7.6%
Cc1ccc(S(=O)(=O)N2CCOCC2)cc1C(=O)NCc1ccc(F)cc1	-12.3%	3.0	-11.0%	3.3%
CC(=O)c1ccc(OC(=O)CCc2nc3ccccc3s2)cc1	8.1%	7.9	-0.9%	1.0%
CCOC(=O)C1CCCN(Cc2ccccc2Cl)C1 (stereo not given)	1.8%	4.3	-6.6%	2.0%
